Screening results: PubChem, National Center for Advancing Translational Sciences (NCATS)
StopGo reporter: lowers the luciferase signal of an FMDV 2A StopGo reporter; human cells with a luciferase reporter of 2A StopGo recoding; control for the full effect not named in the record; Potency, µM (titrated, usually from 57.9 µM), without a hit: at the top dose signal change, negative = less light; hit rate 1.2% among 410,000; AID 1159524; active = well fitted falling curve with a large enough effect; inconclusive = small, poorly fitted or top-dose-only effect; inactive = no such curve, though single readings can be large or run the other way; tested in HEK293T cells; further: on the % scale 0 is the no-effect control and ±100 the full control effect; nearly all actives have a fitted effect of over 45% in size; luciferase light after 4 h
Cruzain noTriton: cruzain (T. cruzi) inhibition without detergent | Potency, µM, for the others: max response, negative = inhibition, usual class: inhibitors | purified cruzain, Z-FR-AMC fluorescence, no detergent | hit rate 2.3% among 200,000 | P25779 | AID 1476;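 further: plate controls were enzyme without inhibitor for no effect and buffer without enzyme for full effect; nearly all actives have a fitted effect of over 40% in size; top concentration of the series not given in the record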
Target sequence (P25779 123-467 limits assumed): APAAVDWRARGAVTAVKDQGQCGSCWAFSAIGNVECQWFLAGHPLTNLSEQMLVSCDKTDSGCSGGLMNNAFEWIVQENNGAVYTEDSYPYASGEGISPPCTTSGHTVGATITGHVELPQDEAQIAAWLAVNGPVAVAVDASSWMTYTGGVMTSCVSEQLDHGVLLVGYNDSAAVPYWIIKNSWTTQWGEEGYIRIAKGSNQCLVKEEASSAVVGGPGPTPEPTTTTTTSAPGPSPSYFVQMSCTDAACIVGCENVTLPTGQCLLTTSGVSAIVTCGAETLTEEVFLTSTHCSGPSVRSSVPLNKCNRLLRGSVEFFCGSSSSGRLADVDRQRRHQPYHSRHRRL
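Detergent-free condition (0.00005% Triton X-100) in acetate buffer pH 5.5 with DTT. 1.5 nM enzyme and compound were pre-mixed 15 min, then 2 uM Z-FR-AMC substrate added; reaction progress from fluorescence change between first and third reads (60 s).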
RE007 growth inh: less growth of the S. pombe RE007 Vpr strain; Potency, µM (titrated, usually from 92.2 µM), without a hit: at the top dose activity change, negative = less growth; S. pombe RE007 Vpr strain, BacTiter-Glo ATP luminescence, 24 h; control for the full effect not named in the record; hit rate 0.21% among 360,000; active = well fitted falling curve with a large enough effect; inconclusive = small, poorly fitted or top-dose-only effect; inactive = no such curve, though single readings can be large or run the other way;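 further: on the % scale 0 is the no-effect control and ±100 the full control effect; nearly all actives have a fitted effect of over 50% in size; the assay follows cell death caused by Vpr and the record does not say whether a fall means rescue or toxicity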
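Fission yeast strain RE007, carrying one chromosomally integrated HIV-1 vpr copy, was seeded at OD 0.01 in PMG+AL medium with 23 nL pinned compound. After 24 h at 30 °C and 99% humidity, viability was read by BacTiter-Glo luminescence.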
Lassa entry inh: blocks Lassa virus binding to or entry into cells; Lassa virus pseudotype entry inhibition, cell reporter; control for the full effect not named in the record; Potency, µM (titrated, usually from 37.9 µM), without a hit: top-dose activity change, negative = inhibition, hits mostly inhibitors; hit rate 1.2% among 300,000; AID 540256; active means well fitted inhibition curve with a large enough effect; inconclusive means small, poorly fitted or top-dose-only effect, or effect the other way; inactive means flat fitted curve, though single readings scatter; tested in HEK293 cells; further: on the % scale 0 is the no-effect control and ±100 the full control effect; nearly all actives have a fitted effect of over 50% in size; luciferase read-out
SARS PLpro yeast: blocks SARS-CoV papain-like protease in a yeast assay; Potency, µM (titrated, usually from 32.9 µM), for inactives: at the highest dose activity, positive = growth rescue; AID 485353; hit rate 0.19% among 330,000; S. cerevisiae expressing SARS-CoV PLpro, growth rescue; control for the full effect not named in the record; active means well fitted rising curve with a large enough effect; inconclusive means small, poorly fitted or top-dose-only effect; inactive means no such curve, though single readings can be large or run the other way; further: 0% is about no effect; nearly all actives have a fitted effect of over 55% in size; growth read by luminescence after 48 h
NS1 function inh: blocks influenza NS1 protein function; S. cerevisiae slowed by influenza A NS1, growth recovery by OD600; Potency, µM (doses to about 46.1 µM), for inactives: top-dose activity, positive = more growth; hit rate 0.4% among 270,000; active means well fitted rising curve with a large enough effect; inconclusive means small, poorly fitted or top-dose-only effect; inactive means no such curve, though single readings can be large or run the other way; further: nearly all actives have a fitted effect of over 50% in size
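Read-out: OD600 growth recovery of NS1-expressing budding yeast. Cells grown overnight at 30C in -URA glucose medium, washed, resuspended and diluted 1:100 in 2% galactose assay medium, pH 6.0. Same strain lacking NS1 served as positive control.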
Cruzain inh Det: inhibitors of Trypanosoma cruzi cruzain with detergent. P25779. purified cruzain, Z-FR-AMC fluorescence, 0.01% Triton. Potency, µM, for the others: max response, negative = inhibition, most hits filed as inhibitors. hit rate 0.43% among 200,000. AID 1478;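 further: plate controls were neutral wells for no effect and buffer without enzyme for full effect; nearly all actives have a fitted effect of over 40% in size; top concentration of the series not given in the record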
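Sodium acetate buffer (100 mM, pH 5.5) containing 5 mM DTT and 0.01% Triton X-100 hosted 1.5 nM cruzain and test compound for 15 min at room temperature. Cleavage of 2 uM Z-FR-AMC was then tracked by fluorescence.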
Marburg entry inh: Marburg virus entry inhibition; Marburg virus pseudotyped entry inhibition, cell reporter; control for the full effect not named in the record; about a third of the inactives were read at about 46 µM; Potency, µM (highest dose often 37.8 µM), without a hit: at the highest dose activity change, negative = inhibition, most hits filed as inhibitors; hit rate 1.8% among 300,000; AID 540276; active = well fitted inhibition curve with a large enough effect; inconclusive = small, poorly fitted or top-dose-only effect, or effect the other way; inactive = flat fitted curve, though single readings scatter; tested in HEK293 cells; about a fifth of its hits are not listed in these tables; further: on the % scale 0 is the no-effect control and ±100 the full control effect; luciferase read-out
An asterisk follows results filed as active; ? = inconclusive; . = no result given; & = joins results of further samples; [ ] = remark or other dose. Unless noted, the call rests on the fitted dose curve; in most records, active means well fitted curve in the direction sought with a large enough effect; inconclusive means small, poorly fitted or top-dose-only effect, or another doubt; inactive means no such curve, though single readings can be large; an effect the other way counts as inactive or inconclusive. Potency means the concentration at half of the fitted maximal effect.

SMILES	StopGo reporter	Cruzain noTriton	RE007 growth inh	Lassa entry inh	SARS PLpro yeast	NS1 function inh	Cruzain inh Det	Marburg entry inh
CCn1c(NC(=S)Nc2ccccc2)nc2ccccc21	65.0%[activator]	25.1µM*	5.2%	3.4%	7.7%	-15.8%	-2.4%	0.4%
CC(c1ccc(C(C)(C)C)cc1)S(=O)CC(O)CO (stereo not given)	-5.1%	5.6%	12.8%	3.0%	-3.9%	-13.1%	-0.8%	11.3%
CC(=O)c1cc2c(cc1NC(=O)c1c(C)nn(-c3ccc(C)cc3)c1-n1cccc1)OCO2	-7.9%	19.7%	.	9.8%[46.1 µM]	.	.	2.0%	.
CCOc1ccc(C(=O)OC(C)CN2CCCCC2)cc1 (stereo not given)	-3.3%	.	-21.1%	-2.1%[46.1 µM]	1.4%	19.2%	.	0.6%[46.1 µM]
Cc1cc(-c2nnc(SCC(=O)Nc3ccc(C(F)(F)F)cc3)n2C)no1	-25.5%	.	-5.3%	.	0.7%	0.3%	.	.
COc1ccc(NC(=O)Cc2nnc(SCC(=O)Nc3cc(C)ccc3OC)n2C)cc1	9.3%	-3.0%	11.1%	9.5%	.	-6.6%	4.8%	1.4%
CCOC(=O)c1csc(NC(=O)c2ccc(S(=O)(=O)N(CC)CC)cc2)n1	?	14.0%	-6.2%	-21.4%	13.0%	15.2%&3.7%	1.5%	-14.3%&-14.3%&-14.3%
CCOC(=O)c1c2ccc(OCC(=O)N/N=C/c3ccc(C)cc3)cc2n2ccccc12	-24.8%	-5.0%	-7.6%	0.3%	1.8%	5.4%	-1.2%	-14.4%
Cc1cc(NC(=O)CSc2nnc(COc3cccc(C)c3C)n2C)no1	25.2%	3.1%	6.0%	-2.2%	-1.3%	6.1%	4.4%	7.2%
Cc1ccc(NC(=O)Cn2nc(C)c3ccccc3c2=O)c(C)c1	2.7%	1.4%	8.5%	-24.3%	6.7%	-4.7%	3.5%	2.3%
NC(=O)c1ccc(C(F)(F)F)n(Cc2cccc(Cl)c2)c1=O	?	5.8%	0.6%	-22.0%	1.3%	5.7%	-5.1%	-22.2%
COc1cccc(/C=N/n2c(SC)nnc2-c2ccccc2)c1OC	?	15.5%	9.8%	11.2µM*	6.5%	-70.9%	-2.9%	?
CCN1CCN(c2c(Cl)cccc2NC(=O)c2ccco2)CC1	0.0%	-5.0%	-2.6%	4.0%	2.8%	-1.2%	0.3%	1.7%
O=C(Nc1ccc(Cl)c(S(=O)(=O)Nc2ccccc2Cl)c1)c1cccs1	40.5%[activator]	-24.0%	-5.7%	?	-63.9%	15.9%	-4.7%	-30.9%
CCn1c(=S)sc2c(=O)n(CC(=O)Nc3ccc(OC)c(Cl)c3)c(C)nc21	-0.3%	.	6.2%	28.3%[46.1 µM]	1.7%	1.0%	.	-22.2%[46.1 µM]

A portion from the list above:
SMILES	StopGo reporter	Cruzain noTriton	RE007 growth inh	Lassa entry inh	SARS PLpro yeast	NS1 function inh	Cruzain inh Det	Marburg entry inh
CCn1c(NC(=S)Nc2ccccc2)nc2ccccc21	65.0%[activator]	25.1µM*	5.2%	3.4%	7.7%	-15.8%	-2.4%	0.4%
CC(c1ccc(C(C)(C)C)cc1)S(=O)CC(O)CO (stereo not given)	-5.1%	5.6%	12.8%	3.0%	-3.9%	-13.1%	-0.8%	11.3%
CC(=O)c1cc2c(cc1NC(=O)c1c(C)nn(-c3ccc(C)cc3)c1-n1cccc1)OCO2	-7.9%	19.7%	.	9.8%[46.1 µM]	.	.	2.0%	.

(more compounds)
SMILES	StopGo reporter	Cruzain noTriton	RE007 growth inh	Lassa entry inh	SARS PLpro yeast	NS1 function inh	Cruzain inh Det	Marburg entry inh
O=c1c2[nH]c3ccc(F)cc3c2ncn1C1CCCCC1	21.4%	?	0.0%	?	0.3%	-0.7%	-2.4%	2.8%
Cc1ccc(-c2nn(-c3ccc(F)cc3)cc2C(=O)NCCCN2CCCC2=O)cc1	14.6%	.	-6.6%	-2.2%	-1.7%	.	.	-0.9%
Cc1ccc(NS(=O)(=O)c2ccc3c(c2)CC(=O)N3)cc1Cl	25.8%	15.8µM*	.	23.7%[46.1 µM]	-9.5%	.	-11.1%	22.3%[46.1 µM]
COCCCNC(=O)c1cc(=O)n(Cc2ccc(Cl)cc2)c2ccccc12	-14.1%	.	12.0%	?	0.0%	.	.	?
CCN(CC(=O)Nc1c(F)cccc1F)C(=O)c1ccc(Sc2nncn2C)c([N+](=O)[O-])c1	4.9%	.	0.1%	-0.8%	-0.1%	.	.	-23.2%[46.1 µM]
C/C(=N\NC(=O)c1cccnc1)c1ccc(-c2ccccc2)cc1	-7.9%	.	11.7%	14.4%	0.1%	2.1%	.	-19.8%[14.2 µM]
CCN(CC)S(=O)(=O)c1ccc(N2CCOCC2)c(NC(=O)c2ccc(N3CCCC3=O)cc2)c1	-24.2%	.	13.6%	?	0.4%	.	.	?
COc1ccc(NC(=O)C(=O)NCCc2ccccc2)cc1OC	-16.1%	11.1%	.	17.9%[46.1 µM]	.	.	-0.3%	4.4%[46.1 µM]
Cc1[nH]n(C)c(=O)c1[N+](=O)[O-]	-27.5%	.	23.5%	.	1.2%	4.4%	.	.
O=C(NCCSc1c[nH]c2ccccc12)c1c(F)cccc1F	0.0%	.	-2.2%	.	-0.6%	-5.9%	.	.
CC1(C)C/C(=C(/C#N)C(N)=O)CCO1	16.7%	5.2%	-3.9%	7.2%	-3.0%	7.7%	2.1%	3.8%
CCOC(=O)Cn1c(=N)n(Cc2ccccc2F)c2ccccc21	-5.8%	3.9%	4.7%	4.2%	5.1%	-3.6%	-2.7%	0.9%
Cc1cccc(-n2c(O)c(C=NC3CCS(=O)(=O)C3)c3ccccc3c2=O)c1C (stereo not given)	-1.4%	.	-9.5%	1.1%	0.3%	-1.3%	.	8.5%[46.1 µM]
CC(=NNC(=S)Nc1ccc(C)cc1)c1ccccn1	0.3%	.	?	?	.	.	.	?
CC1=CC(C)(C)Nc2ccc(OC(=O)c3cccnc3)cc21	28.2µM*	2.0%	?	?	-18.4%	-8.0%	2.0%	?
O=C(Cn1cnc2ccccc21)N/N=C/C(Br)=C/c1ccccc1	?	-15.1%	-11.8%	-18.2%	4.6%	16.2%	-1.4%	-18.5%
O=C(O)c1ccc(Cn2nnc3sc4c(c3c2=O)CCCC4)cc1	14.4%	.	5.8%	29.8%	-0.8%	.	.	21.0%[46.1 µM]
COc1ccc(-c2nnc(SCC(=O)c3ccc(NC(C)=O)cc3)o2)cc1OC	-21.9%	6.8%	.	-17.5%[46.1 µM]	.	.	-2.3%	.
COc1ccc(/C=C/C(=O)Nc2cc(F)ccc2C)cc1S(=O)(=O)N1CCOCC1	-17.6%	.	8.8%	-38.6%[46.1 µM]	0.7%	.	.	3.2%[46.1 µM]
O=C(c1ccc2c(c1)N(Cc1ccccc1)C(=O)c1ccccc1S2)N1CCCC1	10.5%	?	12.3%	?	-25.7%	0.6%	1.8%	?
O=C1CC(N2CCN(c3nc4ccccc4s3)CC2)C(=O)N1Cc1cccs1 (stereo not given)	?	?	-24.2%	?	-7.1%	-148.4%	-7.9%	?
CCc1ccc2c(c1)C1(NN=C(c3ccc(C)cc3)S1)C(=O)N2 (stereo not given)	-23.9%	-14.7%	?	3.5%	-115.5%	1.7%	-6.7%	?
Cc1nc(-c2cccc3ccccc23)ccc1C(=O)O	10.3%	6.8%	11.5%	?	1.3%	5.0%	-13.0%	19.9%
Cc1ccc(S(=O)(=O)N2CCOCC2)cc1C(=O)Nc1cccc(S(=O)(=O)N2CCCC2)c1	-25.5%	.	-1.5%	-21.6%	-0.5%	-4.6%	.	16.1%[46.1 µM]
Nc1nonc1-n1nnc(C(=O)N/N=C/c2ccccc2F)c1CN1CCc2ccccc21	?	.	1.7%	.	-2.1%	-8.5%	.	.
CCN(CC)S(=O)(=O)c1ccc(N2CCCCC2)c(NC(=O)/C=C/c2cc(OC)c(OC)c(OC)c2)c1	0.0%	?	-3.6%	?	10.8%	?	-5.0%	-2.7%
COc1ccc2nc(NC(=O)c3sc4nc(C)cc(C)c4c3N)sc2c1	0.0%	.	-10.5%	.	0.9%	11.7%	.	.
Cc1ccc(C(=O)c2ccccc2C(=O)OCC(=O)NCC2CCCO2)cc1 (stereo not given)	-13.7%	.	-2.7%	1.0%[46.1 µM]	0.0%	0.0%	.	10.9%[46.1 µM]
COC(=O)c1ccc2c(=O)n(Cc3ccc4c(c3)OCO4)c(=S)[nH]c2c1	-14.2%	.	-4.9%	.	-1.5%	6.8%	.	.
CCCc1ccc(C2C3=C(CC(C)(C)CC3=O)NC3=C2C(=O)c2ccccc23)cc1 (stereo not given)	-8.3%	-26.8%	-3.7%	?	1.6%	?	-0.7%	?
Cc1cccn2c(=O)c3c(nc12)N1CCCCC1C1(C3)C(=O)N(C)C(=O)N(C)C1=O (stereo not given)	-19.4%	.	0.3%	3.8%[46.1 µM]	-2.2%	-3.2%	.	10.4%[46.1 µM]
Cc1nn(-c2ccccc2)nc1C(=O)Nc1nnc(C(F)(F)F)s1	?	.	-11.6%	-1.8%	-1.0%	-6.8%	.	-11.9%[14.2 µM]
CCc1nn2c(=O)c(S(=O)(=O)Nc3ccc(C)c(C)c3)c(C)nc2s1	-1.2%	-2.3%	.	-9.3%[46.1 µM]	.	.	-2.5%	-3.3%[46.1 µM]
COc1cc(C=C2C(=O)NC(=O)NC2=O)ccc1O	-20.6%	.	9.0%	.	0.7%	12.9%	.	.
Cc1cc(N2CCOCC2)nc(SCC(=O)c2ccc(Cl)cc2)n1	?	-1.3%	20.2%	-9.2%	5.0%	-54.5%	3.3%	-4.9%
CN(NS(=O)(=O)c1ccccc1)c1nc2ccccc2nc1C(F)(F)F	-15.3%	6.6%	14.0%	-27.0%	-14.7%	-4.8%	-6.5%	4.5%
O=C(Nc1nnc(S(=O)(=O)N2CCCc3ccccc32)s1)c1ccccc1	-0.4%	-16.3%	.	?	.	.	-2.1%	.

Rows were taken by chance; about 4.6% have a hit in one of these screens.
